# ALR H2O2 inh = blocks human ALR sulfhydryl oxidase activity; purified ALR, DTT oxidation, H2O2 HRP-luminol luminescence; 290,000 compounds, 3.8% hits; inhibition, % (test concentration not listed); P55789;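 active = mean and each replicate at 75% or more; inconclusive = only one of the two met; inactive = neither met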;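 also: stock transfer was 7.5 nL into about 7.5 µL; 0% = neutral wells and 100% = wells with inactivated enzyme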
# Ecoli growth = blocks Escherichia coli growth; OD600, 23 h; stronger effect = lower value; 330,000 compounds, 0.21% hits; OD600 absorbance (no concentration beside the values); AID 1053175;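 active = OD600 absorbance below the run mean of sample wells minus 3.6 SD, in any replicate, cut at about 0.56 in these data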;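 also: stock transfer was 300 nL into about 60 µL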
# rRNA inh HTS = selective bacterial rRNA inhibition in E. coli; E. coli WT GFP vs humanized-ribosome RFP mutants, fluorescence, 24 h; stronger effect = lower value; DMSO median 0, no signal -100; GFP signal change (wild-type ribosome), % (test concentration not listed); 350,000 compounds, 1.6% hits; AID 720706;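 active = significant combined selectivity score with lowered wild-type GFP, culture density cut under 30%, mutant RFP and density less affected; inactive = any of these conditions unmet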; also: one replicate is shown; some compounds called inactive have numbers as strong as hits
# MLL AF4-AF9 inh = MLL-AF4/AF9 protein interaction inhibition. P42568. AlphaScreen, biotin-AF4 peptide binding to FLAG-AF9. inhibition, % at 10 µM. 350,000 compounds, 0.47% hits. AID 651704;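 active = every replicate reaching a set inhibition limit, whatever the replicate mean, cut at about 25% in these data; inconclusive = mean inhibition reaches that limit but some replicates miss it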;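 also: 0% = plate neutral control median and 100% = total signal loss; the record names both 10 and 1 µM as test concentration; the first replicate is given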
# Target sequence (P42568 whole entry, looked up): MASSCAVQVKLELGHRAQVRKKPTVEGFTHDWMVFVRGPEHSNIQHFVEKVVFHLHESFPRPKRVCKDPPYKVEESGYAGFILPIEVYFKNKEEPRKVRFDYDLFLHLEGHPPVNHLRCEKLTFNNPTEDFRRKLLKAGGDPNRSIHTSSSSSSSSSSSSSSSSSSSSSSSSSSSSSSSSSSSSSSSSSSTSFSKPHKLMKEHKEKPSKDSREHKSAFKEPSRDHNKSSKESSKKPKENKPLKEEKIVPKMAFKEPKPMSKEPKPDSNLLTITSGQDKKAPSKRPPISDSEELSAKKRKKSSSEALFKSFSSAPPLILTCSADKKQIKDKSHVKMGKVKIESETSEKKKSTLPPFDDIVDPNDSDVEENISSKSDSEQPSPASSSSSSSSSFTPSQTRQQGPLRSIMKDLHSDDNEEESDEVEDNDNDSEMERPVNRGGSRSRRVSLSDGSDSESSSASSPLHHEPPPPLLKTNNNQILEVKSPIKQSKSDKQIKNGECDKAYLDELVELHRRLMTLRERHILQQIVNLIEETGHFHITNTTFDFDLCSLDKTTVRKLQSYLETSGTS
# HNF4A DNA FP = change in binding of human HNF4 alpha to DNA. HNF4a-FITC DNA binding, fluorescence polarization, 1 h. AID 1224865. 360,000 compounds, 0.3% hits. activity change, % at 10 µM; in the data active = activity change above about 30%, passing the limit was not always enough;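 also: controls were the assay level and a saturating level of protein; the project sought stronger binding though the title names inhibitors; some compounds called inactive have numbers as strong as hits; positive values seem to mean higher polarization but the record does not say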
# Target sequence (P41235 whole entry, looked up): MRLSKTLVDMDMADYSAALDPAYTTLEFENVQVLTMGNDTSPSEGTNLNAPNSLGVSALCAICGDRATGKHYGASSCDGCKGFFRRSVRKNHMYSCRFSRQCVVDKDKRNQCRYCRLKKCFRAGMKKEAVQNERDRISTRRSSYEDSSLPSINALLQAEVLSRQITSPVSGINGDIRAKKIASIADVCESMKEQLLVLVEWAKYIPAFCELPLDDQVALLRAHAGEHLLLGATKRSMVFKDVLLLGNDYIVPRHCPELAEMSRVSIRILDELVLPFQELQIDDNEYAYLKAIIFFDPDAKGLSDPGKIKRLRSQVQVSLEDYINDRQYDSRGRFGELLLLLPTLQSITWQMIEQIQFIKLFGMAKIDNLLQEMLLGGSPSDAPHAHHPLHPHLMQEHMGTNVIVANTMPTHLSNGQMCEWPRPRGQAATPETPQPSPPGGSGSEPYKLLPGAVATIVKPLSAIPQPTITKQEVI
# FGF22 binding = shifts melting point of recombinant human FGF22. Q9HCT0. recombinant FGF22 thermal shift, SYPRO orange fluorescence; percent of sucrose octasulfate shift, DMSO zero. calls only at 9.99 µM. 340,000 compounds, 1.5% hits;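 active = melting point raised past a set limit in the mean and every replicate; inconclusive = no clear call; three in four hits are not shown here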
# Vif TR-FRET = inhibitors of Vif binding to APOBEC3G peptide, primary screen, biochemical, TR-FRET, GST-Vif 1-94, biotin-A3G peptide, dose response retest (AID 1117319) | TR-FRET GST-Vif / biotin-A3G peptide binding; higher % means a stronger effect; test concentration not given here; strong numbers were not always called active | inhibition, %; hits with a dose series show IC50 in µM | 260,000 compounds, 0.57% hits;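 active = above the screen mean plus three standard deviations and confirmed in dose response; inconclusive = results disagree or hit not tested in dose response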;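 also: Vif residues 1-94 fused to GST binding biotinylated APOBEC3G peptide 110-148; 0% = full assay without inhibitor and 100% = GST in place of GST-Vif; retest series ran down from 100 µM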
# rRNA inh HTS OD600 = second read-out of rRNA inh HTS, no call of its own (marks repeat the call); OD600 change, %; measured here: OD600 growth;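 optical density of the mix in the first replicate; 0 = DMSO median and -100 = no signal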
# rRNA inh HTS RFP = further read-out of rRNA inh HTS, marked with its call; RFP signal change, %; measured here: RFP humanized mutant strains;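 first replicate; 0 = DMSO median and -100 = no signal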
# * hit, by the source's call; i = inactive; ? = inconclusive; nt = not tested or not shown; + = active, no number; & = joins results of further samples. Only part of the results is shown; the hit share may differ from the screen's.
SMILES,ALR H2O2 inh,Ecoli growth,rRNA inh HTS,rRNA inh HTS OD600,rRNA inh HTS RFP,MLL AF4-AF9 inh,HNF4A DNA FP,FGF22 binding,Vif TR-FRET
COC(=O)c1nn(-c2ccccc2)nc1-c1nn(-c2ccccc2)nc1C(=O)OC,-2,0.68,nt,nt,nt,nt,4.3,nt,-9%
COc1cccc(N2C(=O)CC(N3CCC(C(N)=O)(N4CCCCC4)CC3)C2=O)c1 (centres undefined),-8,0.72,nt,nt,nt,nt,1.3,nt,20%
CCc1cc(CNC(=O)c2ccc3nc(Cc4ccc(OC)c(OC)c4)oc3c2)on1,-32,0.66,6,6,4.2,-3.0,5.8,i,nt
OCCN1CCN(Cc2cc(Br)cc(Br)c2O)CC1,60,0.73,nt,nt,nt,nt,1.0,nt,10%
O=c1c2ccccc2oc2cc(-c3ccc4[nH]ccc4c3)ccc12,-4,0.67,-6,-7,-9.0,-11,4.3,i,nt
C[C@@H]1CN([C@H](C)CO)C(=O)c2cc(NC(=O)Nc3ccc4c(c3)OCO4)ccc2O[C@@H](C)CCCCO[C@H]1CN(C)S(=O)(=O)c1ccc(Cl)cc1,nt,nt,2,4,-2.0,-0.3,nt,i,nt
CCOC(=O)c1sc(NN=C(C(=O)OC)C(=O)OC)c(C(=O)OCC)c1C,-9,0.72,10,0,-1.1,1.1,25,i,24%
Cc1csc(NC(=O)CSc2nnc(-c3ccncc3)o2)n1,-55,0.71,nt,nt,nt,nt,-1.6,nt,10%
C[C@H]1CN([C@@H](C)CO)S(=O)(=O)c2ccc(-c3cncnc3)cc2O[C@H]1CN(C)C(=O)CC1CC1,nt,nt,4,-1,-1.9,1.1,nt,i,nt
CC(O)(c1ccccc1)c1nc(-c2ccc(F)c(Cl)c2)cs1 (centres undefined),nt,nt,-60,-78,-20,-4.5,0.1,i,nt
CC1(C(=O)O)CCC(C(=O)N2CCCCC2)C1(C)C (centres undefined),-6,0.72,11,4,1.8,-8.5,-0.1,i,?
COc1cc(Cl)ccc1NC(=O)COc1ccccc1C(=O)NN,4,0.71,-8,-4,2.0,-0.7,-2.0,i,1%
Cc1cc(C(=O)CN2C(=O)NC3(CCCc4ccccc43)C2=O)c(C)n1Cc1cccs1 (centres undefined),-1,0.76,nt,nt,nt,nt,0.7,nt,3%
CN(CC(O)COCc1cccs1)C1CCCCC1 (centres undefined),-16,0.7,nt,nt,nt,nt,-3.2,nt,20%
CC(=O)c1ccc(Sc2ccccc2)c([N+](=O)[O-])c1,-7,0.7,-18,-27,-7.2,1.4,-3.6,nt,-6%
O=C(Nc1ccnc(=O)[nH]1)c1sc2ccccc2c1Cl,-2,0.68,8,9,-2.5,4.0,-0.1,i,-18%
CCOC(=O)CN1C(=O)C(Sc2n[nH]c(-c3ccc(O)cc3)n2)CCc2ccccc21 (centres undefined),nt,0.69,nt,nt,nt,nt,1.7,nt,1%
Oc1ccc(C2C[C@H]3CC[C@@H]2C3)cc1O (some centres undefined),99*,0.62,-16,-6,2.7,16,-4.5,i,24%
CCCS(=O)(=O)N1CCCC(C(=O)NCc2ccc(C)cc2)C1 (centres undefined),-6,0.72,nt,nt,nt,nt,0.0,nt,-6%
CC(=O)Nc1ccc(S(=O)(=O)NCC(=O)OCC(=O)NC(=O)c2cccn2C)cc1,-13,0.65,11,1,-1.2,-8.7,-0.8,i,7%
CCCCc1nc2cc(C(=O)NC(C)c3cnn(C)c3)ccc2o1 (centres undefined),-2,0.68,5,2,-2.2,-20,1.2,i,nt
COC(=O)c1cc(C(=O)N2CCOCC2)cc([N+](=O)[O-])c1,nt,0.74,5,7,-0.2,-3.8,-8.8,i,?
COC(=O)[C@]12CCCCC=C1N(Cc1ccco1)C(=O)[C@H](CC(=O)NCc1cccc(C(F)(F)F)c1)C2,nt,nt,-15,-15,3.9,-0.3,0.0,i,nt
Cc1oc2cc(O)ccc2c(=O)c1Oc1ccc(F)cc1,-16,0.63,3,12,0.9,-0.2,0.1,i,-4%
CCn1c(SC(C)C(=O)Nc2nnc(C)s2)nnc1-c1ccco1 (centres undefined),16,0.68,3,-1,-2.0,-3.7,-0.9,i,nt
CCOC(=O)c1ccc(NC(=O)CNNC(=O)COc2ccccc2C)cc1,-4,0.66,-29*,-14*,3.0*,-1.8,3.8,i,nt
CCC(=O)Nc1nnc(/C=C/c2ccccc2)s1,-5,0.68,9,5,-6.9,2.9,1.1,i,-7%
CCOc1ccccc1NC(=O)Nc1ccc2c(c1)OCO2,-13,0.68,0,-2,-2.5,6.9,4.0,i,nt
Cc1noc(C)c1NC(=O)Nc1ccc2c(c1)C(=O)N([C@H](C)CO)C[C@H](C)[C@H](CN(C)C(=O)Nc1ccc3c(c1)OCO3)OCCCC[C@H](C)O2,nt,nt,0,1,-2.8,-0.2,nt,i,nt
CCCS(=O)(=O)NC(=O)C1(C)CCCN(C(=O)c2cccnc2Oc2ccccc2)C1 (centres undefined),nt,nt,23,28,-1.1,-0.7,-2.5,i,nt
COC(=O)Nc1cc([N+](=O)[O-])ccc1OC,-29,0.71,nt,nt,nt,2.1,-0.5,i,5%
Cc1ccc(NC(=O)C(=O)c2c(-c3ccccc3)cc3ccccn23)cc1S(=O)(=O)N1CCOCC1,-27,0.72,nt,nt,nt,nt,1.1,nt,38%
CN(C(=O)c1ccc(S(=O)(=O)c2cccc(Cl)c2)c([N+](=O)[O-])c1)C1CCCCC1,-13,0.62,nt,nt,nt,nt,-0.3,nt,nt
O=C(COc1ccc(Cl)cc1)Nc1ncc([N+](=O)[O-])s1,nt,0.66,-24*,0.2*,8.2*,-6.7,-2.3,i,nt
Cc1cccc(C)c1NC(=O)CNc1ncnc2sc(C)c(C)c12,-102,0.71,nt,nt,nt,nt,-0.4,nt,-24%
COc1cc(O)cc(/C=C/c2ccccc2)c1,nt,0.66,-46,-74,-3.2,21,-1.6,i,6%
COc1cccc(-c2ccc3n(c2=O)C[C@@H]2[C@@H](CO)[C@H](C(=O)N(C)C)N(C(=O)C4CCCC4)[C@H]32)c1,nt,nt,6,17,-4.6,-3.9,nt,i,nt
O=C(c1cc(C2CC2)nn1-c1ccccc1)N1CCN(c2ccc(O)cc2)CC1,nt,0.62,-8,-10,5.3,6.1,0.4,i,2%
CCCc1nnc(NC(=O)c2ccc([N+](=O)[O-])cc2)s1,-4,0.6,nt,nt,nt,nt,-0.7,nt,nt
COc1ccc(Nc2ccc(S(=O)(=O)N3CCCCCC3)cc2[N+](=O)[O-])cc1,-3,0.66,nt,nt,nt,nt,-1.9,nt,5%

# In a second layout: entries from further up.
SMILES | ALR H2O2 inh | Ecoli growth | rRNA inh HTS | rRNA inh HTS OD600 | rRNA inh HTS RFP | MLL AF4-AF9 inh | HNF4A DNA FP | FGF22 binding | Vif TR-FRET
Cc1ccc(NC(=O)C(=O)c2c(-c3ccccc3)cc3ccccn23)cc1S(=O)(=O)N1CCOCC1 | -27 | 0.72 | nt | nt | nt | nt | 1.1 | nt | 38%
CN(C(=O)c1ccc(S(=O)(=O)c2cccc(Cl)c2)c([N+](=O)[O-])c1)C1CCCCC1 | -13 | 0.62 | nt | nt | nt | nt | -0.3 | nt | nt
O=C(COc1ccc(Cl)cc1)Nc1ncc([N+](=O)[O-])s1 | nt | 0.66 | -24* | 0.2* | 8.2* | -6.7 | -2.3 | i | nt

# Next part.
SMILES,ALR H2O2 inh,Ecoli growth,rRNA inh HTS,rRNA inh HTS OD600,rRNA inh HTS RFP,MLL AF4-AF9 inh,HNF4A DNA FP,FGF22 binding,Vif TR-FRET
O=C(c1ccco1)N1CCN(Cc2cc(=O)c(OCc3c(F)cccc3Cl)co2)CC1,11,0.66,5,7,-1.1,-0.7,0.2,i,0%
CCc1ccc(N2CC(C(=O)OCC(=O)Nc3ccc(C(C)=O)cc3)CC2=O)cc1 (centres undefined),3,0.69,-5,-9,2.4,-6.7,1.8,+,-10%
O=C(NCc1nc(-c2ccc(Cl)cc2)no1)c1ccco1,10,0.67,-5,-22,-3.4,-4.9,-2.9,i,nt
Cc1ccc2c(c1)N(C(=O)CCC(=O)N1CCCCC1)CCO2,-3,0.68,1,10,-7.3,-11,1.6,i,nt
O=C(Nc1cccc(-c2cccc(F)c2)c1)C1CCN(C2CCC2)CC1,-13,0.66,-4,-4,6.5,0.2,1.7,i,nt
OC[C@@H]1CN(Cc2ccco2)C[C@H](n2cnc3c(NCc4ccc(F)cc4)ncnc32)O1,nt,nt,6,10,1.2,-3.9,-1.0,i,nt
O=C(O)c1cccnc1C(=O)N1CCc2c([nH]c3ccccc23)C1C(F)(F)F (centres undefined),-14,0.68,9,-3,-0.3,-4.3,-1.4,i,-5%
CC(NC(=O)/C(=C/c1ccc(OC(F)F)cc1)c1ccccc1)c1ccccc1 (centres undefined),-1,0.67,-16,-24,-21,2.2,2.7,i,10%
Clc1ccc(Oc2ccccc2)c2ncccc12,nt,0.67,-7,0,-0.5,-1.3,-1.7,i,3%
O=S(=O)(c1ccc(F)cc1)N1CCCCN2[C@H](CO)[C@@H](c3ccc(-c4ccccc4)cc3)[C@H]2C1,nt,nt,2,8,-0.5,-1.6,nt,i,nt
CCCC/C(O)=C1\C(=O)CCCC1=NCCc1c(C)[nH]c2ccccc12,20,0.68,-23*,-15*,-1.9*,3.0,-2.3,i,24%
Cc1ccccc1N(C(=O)Cc1ccsc1)C(C(=O)NC1CCCCC1)c1ccc(F)cc1 (centres undefined),-3,0.67,7,5,-1.9,-0.8,-2.6,i,-1%
C[C@H](CO)N1C[C@H](C)[C@@H](CN(C)C(=O)Nc2ccccc2)Oc2ncc(-c3ccc(C#N)cc3)cc2C1=O,nt,nt,4&-7,6&2,0.6&-6.4,-1.2&0.1&-0.1,1.7,i,-1%
CC1CC(C)CN(C(=O)Cn2c(=O)oc3cc(S(=O)(=O)N4CCCC4)ccc32)C1 (centres undefined),-4,0.66,6,5,-1.6,-0.1,0.5,i,nt
COc1ccc(S(=O)(=O)Nc2ccc3c(c2)CC(=O)N([C@H](C)CO)C[C@@H](C)[C@H](CN(C)C(=O)Nc2c(C)noc2C)O3)cc1,nt,nt,5,2,-1.0,1.9,nt,i,nt
Cc1[nH][nH]c(=O)c1C(c1ccc(-c2ccccc2C(=O)O)o1)c1c(C)[nH][nH]c1=O,-19,0.72,2,12,-3.8,-0.6,-19,i,25%
COCC(=O)N(C)C[C@@H]1Oc2cc(-c3ccccc3)ccc2S(=O)(=O)N([C@H](C)CO)C[C@H]1C,nt,nt,-7,-18,-3.1,-2.1,nt,i,nt
N#C[C@@H]1[C@H](c2ccccc2C2=CCCCC2)[C@@H](CO)N1C(=O)CN1CCOCC1,nt,nt,2,-4,-1.2,0.7,nt,i,nt
CCCNC(=O)c1c(O)c2cccc3c2n(c1=O)CCC3,4,0.69,11,12,3.2,-32,-4.6,i,3%
Cc1ccc(CC(CC(=O)O)C(=O)Nc2ccc(Cl)cc2)cc1 (centres undefined),-4,0.66,-6,-7,-4.1,1.9,0.2,i,nt
Cc1ccc(C2(C)NC(=O)N(CC(=O)NC3CCCCC3)C2=O)cc1 (centres undefined),nt,0.67,2,1,-2.2,-15,-2.9,i,4%
C[C@@H]1CN([C@H](C)CO)S(=O)(=O)c2ccc(/C=C/c3ccccc3)cc2O[C@H]1CN(C)C(=O)C1CC1,nt,nt,-9,-47,2.4,11,nt,i,nt
CCc1ccc(C(O)(CNCc2ccccc2)c2ccccc2)cc1 (centres undefined),-3,0.62,-13,-48,32,1.6,1.5,i,-2%
